# D2 agonist = Beta-Arrestin HTS for Positive Allosteric Modulators of the Human D2 Dopamine Receptor: Agonists. D(2) dopamine receptor (Homo sapiens), P14416. DiscoveRx PathHunter D2 beta-arrestin, luminescence, 90 min; 100% = 57 uM dopamine signal. activation, % (concentration not given with the values). 360,000 tested, 0.084% active. AID 624465, 2012; in the data active = activation above about 40%; inconclusive = about 15% to 40%; inactive = below about 15%; note: compound concentration not given in the record; the text of the record calls up to 30% inactive
# Target sequence (P14416 whole entry, looked up): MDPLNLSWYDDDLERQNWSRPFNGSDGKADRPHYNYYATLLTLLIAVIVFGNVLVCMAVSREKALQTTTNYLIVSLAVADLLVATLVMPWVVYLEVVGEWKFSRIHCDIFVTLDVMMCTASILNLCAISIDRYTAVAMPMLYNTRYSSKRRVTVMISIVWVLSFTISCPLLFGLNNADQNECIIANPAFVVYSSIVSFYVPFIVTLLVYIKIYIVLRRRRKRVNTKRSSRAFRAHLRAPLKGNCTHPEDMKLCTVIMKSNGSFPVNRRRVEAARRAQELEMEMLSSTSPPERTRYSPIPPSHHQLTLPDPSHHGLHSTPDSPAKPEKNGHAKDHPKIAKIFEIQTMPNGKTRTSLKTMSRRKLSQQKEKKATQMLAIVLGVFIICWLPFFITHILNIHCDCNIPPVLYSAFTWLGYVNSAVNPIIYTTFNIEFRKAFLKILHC
#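 DiscoveRx PathHunter D2 beta-arrestin cells (2,100/well) attached overnight, then compound-stimulated 90 min at 37 C in HBSS/10 mM HEPES/0.1% Tween-20 buffer; beta-galactosidase complementation read by luminescence after 1 h at ambient temperature. Dopamine 57 uM final (EC100) as control.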
# D2 PAM = Beta-Arrestin HTS for Positive Allosteric Modulators of the Human D2 Dopamine Receptor: Potentiators | D(2) dopamine receptor (Homo sapiens), P14416 | DiscoveRx D2 beta-arrestin cells, luminescence, 90 min; 100% = 57 uM dopamine signal | potentiation, % (no concentration beside the values) | 360,000 tested, 0.23% active; active = potentiation of 50% or more; inconclusive = 30% to 50%; inactive = 30% or less;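 note: compound concentration not given in the record; tested on top of an EC20 dose of dopamine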
#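 D2 cells co-treated with compound plus 50 nM dopamine (EC20) for 90 min at 37 deg C to detect potentiation. Beta-arrestin recruitment was read as enzyme-fragment luminescence after 1 h at ambient temperature. Full response was set by 57 uM dopamine.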
# TRPML1 blocker = qHTS for Inhibitors of the Human Mucolipin Transient Receptor Potential 1 (TRPML1) | activity change, negative = inhibition, % (no concentration beside the values) | 390,000 tested, 0.02% active | TRPML1-inducible cells, Ca2+ dye fluorescence, FDSS; stronger effect = lower value; inhibition of EC80 agonist-evoked calcium signal | Mucolipin-1 (Homo sapiens), Q9GZU1; in the data active means activity change below about -50%; inconclusive means about -30% to -50%; inactive means above about -30%;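 note: stimulus is agonist 54-4 at its EC80 concentration; % is set by controls: 0 for no effect and ±100 for the full control effect; compound concentration not given in the record; the text of the record puts the active cut at -80%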
# Target sequence (Q9GZU1 whole entry, looked up): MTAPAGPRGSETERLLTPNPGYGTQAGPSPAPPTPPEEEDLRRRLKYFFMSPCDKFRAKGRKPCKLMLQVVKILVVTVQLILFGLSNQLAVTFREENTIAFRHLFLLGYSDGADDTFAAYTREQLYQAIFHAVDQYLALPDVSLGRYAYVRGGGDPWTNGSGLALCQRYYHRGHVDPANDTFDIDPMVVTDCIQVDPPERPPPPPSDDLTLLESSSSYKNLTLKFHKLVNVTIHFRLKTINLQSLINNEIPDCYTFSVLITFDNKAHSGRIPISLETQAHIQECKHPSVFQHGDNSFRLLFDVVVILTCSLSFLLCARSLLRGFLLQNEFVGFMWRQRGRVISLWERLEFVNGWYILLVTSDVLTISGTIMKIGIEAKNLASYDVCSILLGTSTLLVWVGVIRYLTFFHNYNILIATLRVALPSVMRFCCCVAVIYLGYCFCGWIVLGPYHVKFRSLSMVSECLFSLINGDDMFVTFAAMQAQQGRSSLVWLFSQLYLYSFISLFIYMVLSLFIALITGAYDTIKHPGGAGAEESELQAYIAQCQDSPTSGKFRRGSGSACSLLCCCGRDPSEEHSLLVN
#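 Calcium fluorescence in TRPML1-DL cells induced overnight with Tet: a 110 s read after compound pin addition, then a 110 s antagonist read after challenge with 54-4 at 4 uM final (EC80).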
# TRPML1 ag = qHTS for Agonists of the Human Mucolipin Transient Receptor Potential 1 (TRPML1); Mucolipin-1 (Homo sapiens), Q9GZU1; TRPML1-expressing cells, Ca2+ dye fluorescence, FDSS; host cell line not named in the record; reference of the full effect not given here; activation, % (concentration not given with the values); 410,000 tested, 0.12% active; AID 624414, 2012; in the data active = activation above about 50%; inconclusive = about 30% to 50%; inactive = below about 30%; note: 0% is about no effect; the text of the record puts the active cut at 80%
#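 In this qHTS format, compounds were pin-transferred onto Ca8-dye-loaded TRPML1-DL cells induced with Tet overnight, and intracellular Ca2+ fluorescence was recorded kinetically for 110 s after a 10 s baseline. A subsequent 4uM final 54-4 (EC80) addition followed by a second 110 s read served as the antagonist phase.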
# PINK1 modulator = A Quantitative High throughput Screen to Identify Chemical Modulators of PINK1 Expression; PINK1 immunofluorescence, high-content cytometry, 24 h; Potency, µM (series often up to 76.6 µM), for the others: top-dose activation (PINK1 increase), actives largely listed as activators; 410,000 tested, 0.2% active; active = well fitted activation curve with a large enough effect; inconclusive = small, poorly fitted or top-dose-only effect; inactive = flat fitted curve, though single readings scatter; cell line not stated here;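 note: potency is the fitted concentration of half-maximal effect; % of control where 0% means no effect; nearly all actives have a fitted effect of over 65% in size; a mitochondrial uncoupler was the plate control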
#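 A stable cell line was treated with compounds at 5 concentrations for 24 hours, with CCCP as control. PINK1 levels and mitochondrial localization were measured by immunofluorescence with mitochondrial, cell and nuclear markers after fixation, read by laser-scanning cytometry.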
# Six1-Eya2 blk = qHTS Assay for Inhibitors of the Six1/Eya2 Interaction. Homeobox protein SIX1 (Homo sapiens) + Protein phosphatase EYA2 (Homo sapiens), …. AlphaScreen GST-Six1/His-Eya2 binding, biochemical; stronger effect = lower value; control for the full effect not named in the record. activity change, % (test concentration not listed). 360,000 tested, 0.56% active. AID 651725, 2012; in the data active = activity change below about -65%; inconclusive = about -30% to -65%; inactive = above about -30%; note: % is set by controls: 0 for no effect and ±100 for the full control effect; compound concentration not given in the record
#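 AlphaScreen luminescence read after one hour at 37 °C in darkness. Pin-transferred compounds met GST-Six1 and His-Eya2 protein (5X stock 250 nM/500 nM) plus glutathione donor and Ni-chelate acceptor beads (5X, 50 ug/mL).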
# An asterisk follows results filed as active; ? = inconclusive; · = no result given; & = joins results of further samples; [ ] = another dose, or the depositor's remark. Compounds as they come, and some 1% of all compounds hit somewhere here.
Compound	D2 agonist	D2 PAM	TRPML1 blocker	TRPML1 ag	PINK1 modulator	Six1-Eya2 blk
O=C(Cn1cnc2onc(-c3ccc(F)cc3)c2c1=O)N1CCN(c2ccc(F)cc2)CC1	·	·	21	0.6	-2.5%	·
CCCn1c(=O)c(C(=O)NCc2ccccc2)c(O)c2ccccc21	-3.0	0	2	0.3	10%	-1
CCc1ccc(S(=O)(=O)c2nnn3c2nc(NC(C)C)c2cc(Cl)ccc23)cc1	·	·	-18	0.4	-1.1%	·
Cc1ccc(C)c(N2CCN(S(=O)(=O)c3c(C)nc4sccn4c3=O)CC2)c1	·	·	0	-0.6	0.4%	·
O=C(NCc1n[nH]c(=S)n1-c1ccc(F)cc1)c1ccc(S(=O)(=O)N2CCCCC2)cc1	3.6	-10	-4	-0.3	1.1%	-2
COC(C(=O)Nc1ccc(S(=O)(=O)Nc2ccc(F)cc2)cc1)c1ccccc1 (stereo unspecified)	-3.0	-9	67	-0.4	0.0%	10
N#C[C@@H]1N(Cc2ccccc2)C(=O)[C@H]2CC3C=CC21O3 (stereo partly specified)	-1.3	1	-4	0.2	0.8%	0
COc1cccc(-n2cc(C(=O)OCc3ccc(F)c(F)c3)c3ccccc3c2=O)c1	·	·	-10	0.2	1.6%	·
CCOC(=O)c1cc2c(=O)n3ccccc3nc2n(C)c1=NC(=O)c1c(-c2ccccc2Cl)noc1C	·	·	10	-0.3	2.2%	·
Cc1ccc([C@@H]2C[C@H]3[C@@H](CN2S(=O)(=O)c2ccc(C)cc2)C(=O)C[C@@H](c2ccc(C)cc2)N3S(=O)(=O)c2ccc(Cl)cc2)cc1	-12	-3	-14	0.3	-0.1%	8
COc1cccc(NC(=O)C(C)OC(=O)c2n[nH]c3ccccc23)c1 (stereo unspecified)	0.3	6	8	-0.2	-1.3%	0
CNCc1ccccc1Sc1cc(O)ccc1O	3.5	8	2	-0.2	5.5%	?
COc1ccc(C/C(C)=N/NC(=S)Nc2ccc(C)c(C)c2)cc1	-3.4	-6	-12	-0.5	-0.1%	0
CCCC(=O)Nc1ccc(NC(=O)c2cc3ccccc3o2)c(OC)c1	?	-9	0	-0.4	7.7%	2
CCN1C(=O)C(O)(c2c[nH]c3ccccc23)c2cc(Br)ccc21 (stereo unspecified)	·	·	13	1.2	-0.1%	·
C/C(Cn1nnc([N+](=O)[O-])n1)=N\NC(=O)c1ccccc1O	?	5	-1	0.3	0.4%	-6
COc1ccc2c(CC(=O)NCc3cccs3)coc2c1	-1.8	1	10	0.1	1.3%	-17
CC(=O)N1CCc2cc(NC(=O)C3(C)CCN3CCc3ccccc3)ccc21 (stereo unspecified)	-2.0	-1	·	-1.2	2.9%	-5
O=C(Nc1ccccn1)C1COc2ccccc2O1 (stereo unspecified)	-0.3	5	-3	0.0	·	5
CCOc1cc(C(=O)Nc2c(C)ccc3nsnc23)cc(OCC)c1OCC	0.7	6	8	-0.8	1.6%	5
COc1ccc(NC(=O)C(Sc2ccccc2)c2ccccc2)c(OC)c1 (stereo unspecified)	-5.5	-4	-9	2.1	0.5%	1
Cc1cccc(C)c1OCc1cc(C(=O)NCc2ccc(Cl)s2)no1	-1.3	-14	-10	-0.5	4.3%	10
CC(=O)C12CC(C)=C(C)CC1CC1C3CCC4=CC(=O)CCC4(C)C3CCC12C (stereo unspecified)	-2.9	2	3	0.3	6.7%	-5
COc1ccc(-c2nnc3n2CCCCC3)cc1	-2.4	-5	-6	0.1	2.7%	10
Cc1nn(-c2ccccc2)c2sc(C(=O)N3CCc4ccccc4C3)cc12	-1.0	-12	-3	-0.3	-0.6%[38.3 µM]	4
ClC(/C=N/n1cnnc1)=C/c1ccccc1	-3.7	-5	-8	4.3	-1.5%	-9
O=C(C1CCCC1)N(c1ccccc1)C1C=CS(=O)(=O)C1 (stereo unspecified)	-3.6	-1	-7	-0.2	3.1%[38.3 µM]	5
Cc1cc(C)cc(OCC(=O)Nc2cccc3cccnc23)c1	·	·	-7	5.2	12%	·
CC(C)CN(C(=O)CSc1nnnn1-c1ccccc1)c1c(N)n(CC(C)C)c(=O)[nH]c1=O	-1.3	-4	-1	-0.2	0.1%	-4
COC(=O)[C@]12CCCCC=C1N(Cc1ccccc1)C(=O)[C@H](CC(=O)NCCCCc1ccccc1)C2	·	·	·	0.0	23%	-9
CCc1cnc2c(c1SCCC(C)C)c(=O)n(C)c(=O)n2C	·	·	3	1.4	6.8%	·
CCOC1=C2[C@@H](CN(S(=O)(=O)c3ccc(C)cc3)[C@H]2c2ccccc2F)[C@H]2C(=O)N(CC)C(=O)[C@H]2C1	2.4	1	-3	2.1	-0.6%	1
Cc1scc(CN2CCN(c3ccc(F)cc3)CC2)c1C	·	·	11	0.1	1.6%	·
O=[N+]([O-])c1cccc(/C=C/C=N/Nc2nc(N3CCCCC3)nc(N3CCCCC3)n2)c1	-4.1	-5	35	-0.1	1.0%	-26
COc1ccc(CCC(=O)NCCCNC(=O)CCc2ccc(OC)cc2)cc1	-2.4	-11	2	2.3	-0.1%	-4
COC(=O)c1sc(S(=O)(=O)N2CCCCC2C(=O)O)c(C(=O)OC)c1C (stereo unspecified)	-5.9	-8	3	-0.9	1.3%	-3
Cc1ccccc1C(=O)Nc1nnc(SCc2cc(=O)n3ccccc3n2)s1	·	·	13	2.0	-3.8%	·
C#CCOCCOCCOCCNc1nc(N2CCN(C(=O)Cn3cc(CC(C)O)nn3)CC2)nc(N2CCN(C(=O)[C@H](CCCCN)n3cc(CCC(=O)O)nn3)CC2)n1 (stereo partly specified)	-1.8	-11	19	0.0	-0.1%	2
CCOc1ccc2cc(C(=O)NCc3ccccc3)c(=N)oc2c1	-0.2	-3	-2	1.7	12%	7
O=C(O)/C(=C/c1cccnc1)NC(=O)c1ccccc1	2.3	4	0	1.0	-1.0%	12
COc1ccc(C(=O)N2CCN(Cc3cc(OC)ccc3OC)CC2)cc1	0.5	-3	-11	-0.5	0.2%	0
Clc1ccc(-c2cn3c(n2)CCC3)cc1	0.4	-21	12	-0.3	1.4%	-14
Fc1ccc(-c2nc3c4ccccc4ccn3c2Cc2ccccc2C(F)(F)F)cc1	-6.4	-10	2	1.6	1.9%	11
COc1cccc(C(=O)Nc2c(C(=O)NC(C)(C)C)oc3ccccc23)c1	·	·	33	2.2	1.2%	·
COc1ccc(CCNC(=O)NC23CC4CC(CC(C4)C2)C3)cc1OC	-3.2	-28	5	1.4	1.2%	0
Cc1ccc(CN2CC(N3CCN(CCO)CC3)CS2(=O)=O)cc1 (stereo unspecified)	-3.9	-6	·	-0.5	-0.2%	-2
CCC(=O)N(Cc1cc(=O)[nH]c2ccccc12)c1cccc(C)c1	-1.7	-15	-7	-1.6	-0.3%	-11
CC(=O)NC12CC3CC(C1)CC(C(=O)Nc1nc4c(C)cccc4s1)(C3)C2	4.0	0	-4	0.0	-0.7%	-10
CCCCC(C(=O)NC1CCCC1)N(Cc1ccco1)C(=O)Cn1nnc(-c2ccc(F)cc2)n1 (stereo unspecified)	-4.8	-8	-11	0.1	1.3%	-7
Cc1cccc(N2CCN(C(=O)c3ccccc3SCC(=O)N3CCCC3)CC2)c1C	2.7	-6	-9	1.5	-1.5%	3
CCN1C(=O)[C@H]2[C@@H](c3ccc(C)cc3)N3C(=O)N(c4cccc(Br)c4)C(=O)[C@@]3(CC(C)C)[C@H]2C1=O	-1.9	-17	-7	-0.1	1.1%	-20
COc1ccc(OC)c(NC(=O)CSC2=NN3CCCC(=O)N=C3S2)c1	-3.9	-2	1	0.5	-0.8%	0
CCOC(=O)CN1CCC(c2cc(-c3ccc(Cl)cc3)n[nH]2)CC1	0.0	-9	-26	2.0	-3.2%	15
O=C(N=C1c2ccccc2CN1c1ccc(F)c(F)c1)c1cccnc1	-4.2	0	-5	1.1	1.8%	20
CC(Cc1ccccc1)N(C)C(=O)CN1C(=O)c2ccccc2C1=O (stereo unspecified)	1.6	-11	-17	1.0	1.3%	9
CN(CC(=O)Nc1ccccc1C(=O)NC1CC1)Cc1ccc(Cl)s1	-2.6	-1	-10	0.2	-0.5%	16
Clc1ccccc1CSc1ncn(-c2ccccc2)n1	-1.4	-9	2	0.8	16%[38.3 µM]	12
O=C(CN1C(=O)c2cccnc2Oc2ccc(Cl)cc21)NCCc1ccccc1	1.6	-13	20&5	-0.3&0.2	0.8%&-1.8%	0
CC(C)C(NS(=O)(=O)c1ccc2c(c1)C(C)(C)C(=O)N2C)C(=O)NCc1ccc(F)cc1 (stereo unspecified)	-1.8	-2	10	0.3	-2.4%	1
CC(C(=O)Nc1ccc2c(c1)OCO2)N(C)CC(=O)Nc1ccccc1Cl (stereo unspecified)	-3.7	0	25	0.8	-1.5%	0

# One compound at a time, from the list above.
# Profile of CC(C)C(NS(=O)(=O)c1ccc2c(c1)C(C)(C)C(=O)N2C)C(=O)NCc1ccc(F)cc1 (stereo unspecified) = D2 agonist: -1.8; D2 PAM: -2; TRPML1 blocker: 10; TRPML1 ag: 0.3; PINK1 modulator: -2.4%; Six1-Eya2 blk: 1
# Profile of CC(Cc1ccccc1)N(C)C(=O)CN1C(=O)c2ccccc2C1=O (stereo unspecified) = D2 agonist: 1.6; D2 PAM: -11; TRPML1 blocker: -17; TRPML1 ag: 1.0; PINK1 modulator: 1.3%; Six1-Eya2 blk: 9

# (continued)
Compound	D2 agonist	D2 PAM	TRPML1 blocker	TRPML1 ag	PINK1 modulator	Six1-Eya2 blk
COc1cc(-c2cc(NC=O)c3ncc(-c4cccc(C(F)(F)F)c4)n3c2)cc(OC)c1OC	-5.2	-6	·	-0.4	3.9%	-4
O=C(Nc1cc(-c2nc3cc(Cl)ccc3o2)ccc1Cl)c1cccc2ccccc12	·	·	-7	0.4	-0.9%	·
O=[N+]([O-])c1cccc(/C=C2\CCC(/C=N/Nc3ccc4ccccc4n3)=C2N2CCOCC2)c1	-4.4	-8	-1	-0.8	9.8%	-9
Cc1cc(Cl)cc(C)c1OCCCCN1CCOCC1	-0.3	-11	8	1.5	0.2%[38.3 µM]	2
Cc1cc(NC(=O)c2cc3ncc(Br)cn3n2)no1	1.1	-16	-3	1.2	-0.9%	-13
CC1SCC(=O)N(CC(=O)NCCc2ccccc2)C1=O (stereo unspecified)	-1.2	-6	-2	-0.4	3.0%	6
CCOC(=O)c1c(C)oc2nc(C)nc(NC(C)c3ccccc3)c12 (stereo unspecified)	·	·	0	-0.4	-0.1%	·

# Source: PubChem (National Center for Advancing Translational Sciences (NCATS))
